Screening results as filed in PubChem BioAssay.
Glioma ERSR ind – inducers of ER stress response in human glioma cells. AID 602332. Potency, µM, for the others: at the top dose activation, usual class: activators. hit rate 0.02% among 420,000. U87-MG GRP78 promoter luciferase reporter, 16 h; also: potency is read from the fitted curve at half-maximal effect; series mostly up to about 76 µM; % of control where 0% means no effect; nearly all actives have a fitted effect of over 35% in size
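ERSR induction read as luciferase luminescence (Bright-Glo, 10 min at room temperature) in stably transfected human U87-MG glioma cells exposed to compounds for 16 h, using GRP78 as sensor.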
Vif-A3G inh – blocks the Vif interaction with human APOBEC3G | Potency, µM (titrated, usually from 46.1 µM), inactives show at the top dose activity, negative = active, usual class: inhibitors | HeLa A3G-eYFP + Vif (tagged APOBEC3G with the HIV-1 protein that degrades it), YFP fluorescence, overnight | AID 602310 | Q9HC16 | hit rate 0.076% among 410,000;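 also: potency is read from the fitted curve at half-maximal effect; % is scaled to controls: 0 for no effect and ±100 for the full control effect; nearly all actives have a fitted effect of over 60% in size; hits raise eYFP signal because A3G escapes Vif-driven loss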
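Read-out is eYFP fluorescence (Ex 488/Em 500-530) from Vif-expressing HeLa A3G-eYFP cells; more signal means A3G escaped Vif-mediated degradation. Cells plated overnight, compound pinned in, incubated overnight at 37 deg C.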
Vif-A3F inh – Vif-A3F binding inhibition | HeLa A3F-eYFP + Vif (tagged APOBEC3F with the HIV-1 protein that degrades it), YFP fluorescence increase | Potency, µM (doses to about 46.1 µM), inactives show at the top dose activity, negative = active | hit rate 0.2% among 390,000; also: potency is read from the fitted curve at half-maximal effect; % of control where 0% means no effect; nearly all actives have a fitted effect of over 65% in size
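HeLa cells stably expressing A3F-eYFP plus Vif, plated and incubated overnight at 37 deg C, then exposed to compounds overnight at 37 deg C. Blocked degradation read as raised yellow fluorescence (Ex 488/Em 500-530).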
D1 PAM – potentiators of human D1 dopamine receptor; HEK293 TREx D1 cells, calcium flux, dopamine EC20 potentiation; hit rate 0.036% among 360,000; P21728; potentiation, % at 10 µM; in the data active = potentiation above about 30%; also: 0% is about no effect
Target sequence (P21728 whole entry, looked up): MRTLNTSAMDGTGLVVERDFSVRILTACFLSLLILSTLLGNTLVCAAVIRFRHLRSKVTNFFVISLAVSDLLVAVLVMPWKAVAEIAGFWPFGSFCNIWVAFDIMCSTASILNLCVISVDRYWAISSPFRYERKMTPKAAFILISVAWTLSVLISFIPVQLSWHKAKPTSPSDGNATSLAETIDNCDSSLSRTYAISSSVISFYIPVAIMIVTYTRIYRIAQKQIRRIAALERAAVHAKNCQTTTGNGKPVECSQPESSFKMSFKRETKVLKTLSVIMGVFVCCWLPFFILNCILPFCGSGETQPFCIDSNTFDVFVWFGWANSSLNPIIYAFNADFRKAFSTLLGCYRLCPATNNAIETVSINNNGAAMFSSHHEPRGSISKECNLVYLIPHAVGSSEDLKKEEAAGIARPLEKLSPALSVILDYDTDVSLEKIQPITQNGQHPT
D1 antagonist – antagonists of human D1 dopamine receptor. AID 504652. P21728. hit rate 3.2% among 360,000. activity change, negative = inhibition, % at 10 µM. HEK293 TREx D1 cells, calcium flux, dopamine EC80; active compounds read low; in the data active = activity change below about -30%; also: % is scaled to controls: 0 for no effect and ±100 for the full control effect
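Allosteric or orthosteric antagonism assessed as attenuation of the calcium response to EC80 dopamine, added 180 s after compound, in induced HEK293 Trex D1 cells loaded with no-wash calcium dye.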
D1 ag – activates the human D1 dopamine receptor | P21728 | hit rate 1% among 360,000 | HEK293 T-REx D1 cells, calcium flux, agonist mode | AID 504660 | activation, % at 2 µM; in the data active = activation above about 30%; also: 0% is about no effect
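Tetracycline-induced HEK293 TREx D1 cells, force-coupled to calcium signalling, were dye-loaded with a no-wash calcium kit. Compound was pin-added after a 10 s baseline. Fluorescence was read kinetically at 1 cycle/s for 180 s, with calcium rises flagged as agonism.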
RXFP1 antag – antagonists of human relaxin receptor RXFP1; HEK293-RXFP1, relaxin-stimulated cAMP HTRF, 30 min; active compounds read low; Q9HBX9; hit rate 0.59% among 350,000; AID 1259400; activity change, negative = inhibition, % at 57.5 µM;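 active = activity change of -60% or lower, but not beyond a set lower limit; inconclusive = change between -60% and -40%, or beyond the set limit; inactive = change above -40%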; also: % is scaled to controls: 0 for no effect and ±100 for the full control effect
D2 potentiator – positively modulates the human D2 dopamine receptor allosterically | HEK293 T-REx D2, calcium flux, EC20 dopamine potentiation | potentiation, % at 10 µM | hit rate 0.34% among 340,000;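 active = potentiation over 3 SD above the plate norm, cut at about 30% in these data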; also: 0% is about no effect
Target sequence (P14416 whole entry, looked up): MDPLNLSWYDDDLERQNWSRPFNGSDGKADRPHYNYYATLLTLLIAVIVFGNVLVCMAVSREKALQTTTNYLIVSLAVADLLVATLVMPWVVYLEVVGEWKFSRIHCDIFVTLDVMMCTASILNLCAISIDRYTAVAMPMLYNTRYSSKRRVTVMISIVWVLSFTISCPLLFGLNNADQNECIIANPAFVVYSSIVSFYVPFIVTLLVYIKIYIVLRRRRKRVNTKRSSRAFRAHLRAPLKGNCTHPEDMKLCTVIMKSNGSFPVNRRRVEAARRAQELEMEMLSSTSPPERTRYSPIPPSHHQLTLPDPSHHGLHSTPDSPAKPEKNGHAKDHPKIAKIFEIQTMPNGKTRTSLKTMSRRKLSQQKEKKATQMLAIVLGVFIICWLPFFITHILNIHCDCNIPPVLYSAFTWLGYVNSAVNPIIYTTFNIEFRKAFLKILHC
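Potentiation of an EC20 dopamine calcium response is measured in a force-coupled, tetracycline-inducible Hek293 Trex D2 line. Compound-only kinetic reads over 180 s flag agonists before dopamine addition.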
* = called active by the depositor; ? = inconclusive; . = no result given; & = joins results of further samples. Unless noted, calls follow the shape of the dose curve; as a rule, active = well fitted curve in the direction sought with a large enough effect; inconclusive = small, poorly fitted or top-dose-only effect, or another doubt; inactive = no such curve, though single readings can be large; an effect the other way counts as inactive or inconclusive.

Preview, eight compounds:
Short keys – A = Glioma ERSR ind; B = Vif-A3G inh; C = Vif-A3F inh; D = D1 PAM; E = D1 antagonist; F = D1 ag; G = RXFP1 antag; H = D2 potentiator
compound: Cc1ccc(Cc2nc3ccccc3nc2SCC(=O)Nc2cccc(C(F)(F)F)c2)cc1
  A = 5% | B = -4% | C = -7% | D = -3 | E = -12 | F = 6 | G = . | H = 4
compound: COC(=O)[C@@H](CC(C)C)NS(=O)(=O)N(Cc1ccccc1)[C@@H](CC(C)C)C(=O)OC
  A = -2%&-3% | B = -2%&-1% | C = 2% | D = -2 | E = 10 | F = 10 | G = . | H = -3
compound: OC[C@@H]1O[C@@H](n2cnc3c(NC4CCCC4)ncnc32)[C@H](O)[C@H]1O
  A = -2% | B = . | C = . | D = . | E = . | F = . | G = . | H = .
compound: CCc1nn2c(-c3ccccc3OC)ccnc2c1-c1ccc(F)cc1
  A = 1% | B = 1% | C = 1% | D = -6 | E = -7 | F = 1 | G = . | H = 8
compound: CN(Cc1ccco1)S(=O)(=O)c1nnc(NC(=O)c2ccccc2)s1
  A = 4%&-3% | B = -2%&2% | C = 0%&-12% | D = 1&-3 | E = -15&-18 | F = 2&0 | G = 12&-19 | H = 5&4
compound: CCOC(=O)c1ccc(NC(=O)c2sc3ccccc3c2Cl)cc1
  A = 0% | B = 1% | C = -5% | D = -1 | E = 18 | F = 2 | G = . | H = -2
compound: COc1ccc(Cl)cc1C(=O)Nc1nc2ccc(S(C)(=O)=O)cc2s1
  A = . | B = . | C = . | D = -3 | E = -8 | F = 2 | G = . | H = 17
compound: COc1ccc(OC)c(CNc2ncc(-c3ccc(Cl)cc3)n2C)c1
  A = -2% | B = -1% | C = -7% | D = -5 | E = 4 | F = -1 | G = . | H = -9

All compounds of this part, previewed entries included:
Short keys – A = Glioma ERSR ind; B = Vif-A3G inh; C = Vif-A3F inh; D = D1 PAM; E = D1 antagonist; F = D1 ag; G = RXFP1 antag; H = D2 potentiator
compound: Cc1ccc(Cc2nc3ccccc3nc2SCC(=O)Nc2cccc(C(F)(F)F)c2)cc1
  A = 5% | B = -4% | C = -7% | D = -3 | E = -12 | F = 6 | G = . | H = 4
compound: COC(=O)[C@@H](CC(C)C)NS(=O)(=O)N(Cc1ccccc1)[C@@H](CC(C)C)C(=O)OC
  A = -2%&-3% | B = -2%&-1% | C = 2% | D = -2 | E = 10 | F = 10 | G = . | H = -3
compound: OC[C@@H]1O[C@@H](n2cnc3c(NC4CCCC4)ncnc32)[C@H](O)[C@H]1O
  A = -2% | B = . | C = . | D = . | E = . | F = . | G = . | H = .
compound: CCc1nn2c(-c3ccccc3OC)ccnc2c1-c1ccc(F)cc1
  A = 1% | B = 1% | C = 1% | D = -6 | E = -7 | F = 1 | G = . | H = 8
compound: CN(Cc1ccco1)S(=O)(=O)c1nnc(NC(=O)c2ccccc2)s1
  A = 4%&-3% | B = -2%&2% | C = 0%&-12% | D = 1&-3 | E = -15&-18 | F = 2&0 | G = 12&-19 | H = 5&4
compound: CCOC(=O)c1ccc(NC(=O)c2sc3ccccc3c2Cl)cc1
  A = 0% | B = 1% | C = -5% | D = -1 | E = 18 | F = 2 | G = . | H = -2
compound: COc1ccc(Cl)cc1C(=O)Nc1nc2ccc(S(C)(=O)=O)cc2s1
  A = . | B = . | C = . | D = -3 | E = -8 | F = 2 | G = . | H = 17
compound: COc1ccc(OC)c(CNc2ncc(-c3ccc(Cl)cc3)n2C)c1
  A = -2% | B = -1% | C = -7% | D = -5 | E = 4 | F = -1 | G = . | H = -9
compound: Cc1nnc(NC(=O)CSc2ccc3nnc(-c4cccnc4)n3n2)s1
  A = . | B = . | C = . | D = -3 | E = -3 | F = 6 | G = . | H = -8
compound: CC(=O)c1ccc(NC(=O)c2cn(-c3ccccc3)nc2-c2ccc(Br)cc2)cc1
  A = -3% | B = -3% | C = 2% | D = 0 | E = 3 | F = 1 | G = . | H = -1
compound: COc1ccc(-n2nc3ccc(NC(=O)COc4ccc(C)c(C)c4)cc3n2)cc1
  A = -7% | B = -10% | C = 5% | D = -4 | E = 0 | F = -1 | G = . | H = -13
compound: COc1ccc2cc3cc(C(=O)NCCN4CCc5ccccc5C4)sc3nc2c1
  A = 1% | B = 2% | C = -10% | D = 10 | E = 12 | F = 3 | G = . | H = -28
compound: Cc1ccccc1C(=O)OCc1cc(=O)n2c(C)csc2n1
  A = 3% | B = 1% | C = -5% | D = 0 | E = 7 | F = 6 | G = . | H = .
compound: COc1ccc(-n2ccnc(NCc3ccccc3Cl)c2=O)cc1OC
  A = -1% | B = 1% | C = 0% | D = -2 | E = -5 | F = 0 | G = . | H = 2
compound: O=C(Cn1c(=O)n(CCCS(=O)(=O)C2CCCCC2)c(=O)c2ccccc21)Nc1ccc(F)c(Cl)c1
  A = 1% | B = -3% | C = -4% | D = -5 | E = -12 | F = 1 | G = . | H = -4
compound: CC(Sc1ccc2nnc(-c3ccc(F)cc3)n2n1)C(=O)O (stereo not given)
  A = -1% | B = 5% | C = -2% | D = -4 | E = -12 | F = 2 | G = . | H = 4
compound: CNc1ncnc2c1ncn2[C@@H]1O[C@H](CO)[C@@H](O)[C@H]1O
  A = 1%&-1%&0% | B = 2% | C = -4% | D = 0 | E = 14 | F = 2 | G = . | H = 16
compound: O=S(=O)(Nc1cccc(C(F)(F)F)c1)c1ccc(NS(=O)(=O)c2ccc3c(c2)OCCO3)cc1
  A = 5% | B = 0% | C = 0% | D = 1 | E = 9 | F = 2 | G = . | H = 6
compound: CCOC(=O)c1ccc(NC(=O)c2c(C)nn(-c3ccc(F)cc3)c2-n2cccc2)cc1
  A = -3% | B = -5% | C = 6% | D = -2 | E = 4 | F = 4 | G = . | H = .
compound: CC1=Nc2cc(C(=O)NCc3ccccc3Cl)ccc2Sc2c(C)ccc(C)c21
  A = -4% | B = ? | C = -6% | D = 4 | E = 21 | F = 6 | G = . | H = 8
compound: O=c1c(NCc2ccccc2Cl)nccn1-c1ccccc1
  A = 0% | B = 3% | C = -3% | D = -4 | E = -3 | F = 3 | G = . | H = -7
compound: Cc1ccccc1OCC(=O)Nc1ccc2nc(SCCOc3ccccc3)sc2c1
  A = 1% | B = -2% | C = 0% | D = 2 | E = -3 | F = 5 | G = . | H = -1
compound: COc1cccc(CNc2nc3c(-c4ccccc4)nnn3c3ccccc23)c1
  A = 2% | B = 3% | C = -9% | D = -5 | E = -23 | F = 1 | G = . | H = 5
compound: O=c1c(NCCc2ccc(Cl)cc2)nccn1-c1ccccc1
  A = -1% | B = 1% | C = 4% | D = -1 | E = -18 | F = 3 | G = . | H = -4
compound: O=C(O)c1ccc(NS(=O)(=O)c2cccc3cccnc23)cc1
  A = -1% | B = 3% | C = 5% | D = . | E = 6 | F = 2 | G = . | H = -2
compound: Nc1c(C(=O)Nc2ccc(Cl)c(Cl)c2)sc2nc(-c3cccnc3)ccc12
  A = . | B = . | C = . | D = -3 | E = 0 | F = 1 | G = . | H = -6
compound: COc1ccc(-n2ccnc(NCCc3ccc(Cl)cc3)c2=O)cc1OC
  A = 0% | B = -18% | C = -1% | D = 2 | E = -4 | F = 2 | G = . | H = 1
compound: O=c1cc2nc(-c3ccccc3F)nc(SCc3ccc(Br)cc3)n2[nH]1
  A = -2% | B = 2% | C = 1% | D = -4 | E = -13 | F = 6 | G = . | H = 0
compound: COc1ccc(C(=O)C(CN2CCOCC2)c2ccccc2)cc1F (stereo not given)
  A = -13% | B = ? | C = -5% | D = -9 | E = 13 | F = 4 | G = . | H = -4
compound: CC1CCc2c(sc(NC(=O)CCCOc3ccccc3)c2C(N)=O)C1 (stereo not given)
  A = -2% | B = 0% | C = 4% | D = 2 | E = -1 | F = 2 | G = . | H = 12
compound: Cc1ccc(NC(=O)CCSc2nc(-c3ccc4c(c3)OCO4)cc(C(F)(F)F)n2)c(C)c1
  A = -2% | B = -1% | C = 12% | D = -5 | E = 4 | F = 3 | G = . | H = -5
compound: Cc1csc2nc(COc3ccc(NC(=O)C(C)C)cc3)cc(=O)n12
  A = 2% | B = 0% | C = 0% | D = 0 | E = -7 | F = 1 | G = . | H = 7
compound: CC/C(=N/NC(=O)c1ccccc1)c1ccc(OCCN2CCOCC2)cc1
  A = 2% | B = 0% | C = 4% | D = -2 | E = -1 | F = 3 | G = . | H = -13
compound: CCCNC(=O)c1ccc2c(c1)N=C(C)c1c(C)ccc(C)c1S2
  A = -6% | B = -51% | C = -3% | D = 0 | E = 13 | F = 3 | G = . | H = 4
compound: Cc1ccc(Cc2nc3ccccc3nc2SCC(=O)N2CCC(C)CC2)cc1
  A = 1% | B = 0% | C = -9% | D = -3 | E = -1 | F = 3 | G = . | H = 8
compound: Cc1ccc(OCc2cc(=O)n3c4c(sc3n2)CCCC4)c(C)c1
  A = -4% | B = -1% | C = -2% | D = 2 | E = 9 | F = 2 | G = . | H = 3
compound: CC1=Nc2cc(C(=O)NCCc3ccccc3)ccc2Sc2c(C)ccc(C)c21
  A = -1% | B = -29% | C = -5% | D = -3 | E = 15 | F = 11 | G = . | H = 5
compound: CCOC(=O)c1sc2ncn(CC(=O)Nc3cccc(C)c3)c(=O)c2c1C
  A = -5% | B = 8% | C = 2% | D = 2 | E = -35* | F = 2 | G = . | H = 10
compound: CC(=O)Nc1cccc(-c2nnc3c4ccccc4c(C)nn23)c1
  A = . | B = . | C = . | D = 2 | E = -9 | F = 1 | G = . | H = 5
compound: CC1=Nc2cc(C(=O)NC3CCC(C)CC3)ccc2Sc2c(C)ccc(C)c21 (stereo not given)
  A = -1% | B = -34% | C = -3% | D = 4 | E = 9 | F = 1 | G = . | H = 12
compound: Cc1ccc(-c2nnn3c2nc(NCc2ccc4c(c2)OCO4)c2ccccc23)cc1
  A = 1% | B = 3% | C = -10% | D = -1 | E = -5 | F = 0 | G = . | H = .
compound: Nc1ncnc2c1ncn2C1OC(C(=O)NC2CC2)C(O)C1O (stereo not given)
  A = -2% | B = 0% | C = 0% | D = -2 | E = 6 | F = -1 | G = . | H = 20
compound: CCOC(=O)[C@@H](C)N(Cc1ccc(OC)cc1)S(=O)(=O)N(Cc1ccccc1)[C@H](C(=O)OC)C(C)C
  A = -5%&-4% | B = -4%&-1% | C = 0% | D = -4 | E = . | F = 11 | G = . | H = 7
compound: CC(=O)CCCCn1cnc2c1c(=O)n(C)c(=O)n2C
  A = . | B = . | C = . | D = -1 | E = -11 | F = 0 | G = . | H = .
compound: O=C(O)c1cc(-c2cccs2)nc2ccc(Br)cc12
  A = . | B = . | C = . | D = 1 | E = -2 | F = 1 | G = . | H = 0

Not all compounds are listed; rates above refer to the full screens.
